Sfp inh: Sfp phosphopantetheinyl transferase inhibition; Q9F4F7; Biochemical Sfp PPTase activity, qHTS; Potency, µM, inactives show max response, negative = inhibition, actives largely listed as inhibitors; 3.5% of 310,000 active; AID 1490; active = well fitted inhibition curve with a large enough effect; inconclusive = small, poorly fitted or top-dose-only effect, or another doubt; inactive = no such curve, though single readings can be large or run the other way;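 note: the enzyme is Sfp with the accession as filed and its product quenches rhodamine fluorescence; potency is the fitted concentration of half-maximal effect; 0% = enzyme reaction without inhibitor and -100% = no enzyme wells; top concentration of the series not given in the record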
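Fluorescence-quenching assay with 15 nM Sfp, 5 uM rhodamine-CoA and 12.5 uM BHQ-2-labelled ybbR peptide in pH 7.6 Hepes/MgCl2 buffer. Enzyme was pre-incubated with compound for 15 min at room temperature. Rate was taken from the 30-min fluorescence change (525/598 nm).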
TRPV1 potentiator: potentiators of human vanilloid receptor 1 (TRPV1); Q8NER1; TRPV1-expressing cells, Fluo-8 calcium influx, capsaicin EC20 potentiation; host cell line not named in the record; control for the full effect not named in the record; 0.02% of 320,000 active; AID 540277; potentiation, % at 8.33 µM; active means potentiation above 80%; inconclusive means 30% to 80%; inactive means below 30%; note: 0% is about no effect
Target sequence (Q8NER1 whole entry, looked up): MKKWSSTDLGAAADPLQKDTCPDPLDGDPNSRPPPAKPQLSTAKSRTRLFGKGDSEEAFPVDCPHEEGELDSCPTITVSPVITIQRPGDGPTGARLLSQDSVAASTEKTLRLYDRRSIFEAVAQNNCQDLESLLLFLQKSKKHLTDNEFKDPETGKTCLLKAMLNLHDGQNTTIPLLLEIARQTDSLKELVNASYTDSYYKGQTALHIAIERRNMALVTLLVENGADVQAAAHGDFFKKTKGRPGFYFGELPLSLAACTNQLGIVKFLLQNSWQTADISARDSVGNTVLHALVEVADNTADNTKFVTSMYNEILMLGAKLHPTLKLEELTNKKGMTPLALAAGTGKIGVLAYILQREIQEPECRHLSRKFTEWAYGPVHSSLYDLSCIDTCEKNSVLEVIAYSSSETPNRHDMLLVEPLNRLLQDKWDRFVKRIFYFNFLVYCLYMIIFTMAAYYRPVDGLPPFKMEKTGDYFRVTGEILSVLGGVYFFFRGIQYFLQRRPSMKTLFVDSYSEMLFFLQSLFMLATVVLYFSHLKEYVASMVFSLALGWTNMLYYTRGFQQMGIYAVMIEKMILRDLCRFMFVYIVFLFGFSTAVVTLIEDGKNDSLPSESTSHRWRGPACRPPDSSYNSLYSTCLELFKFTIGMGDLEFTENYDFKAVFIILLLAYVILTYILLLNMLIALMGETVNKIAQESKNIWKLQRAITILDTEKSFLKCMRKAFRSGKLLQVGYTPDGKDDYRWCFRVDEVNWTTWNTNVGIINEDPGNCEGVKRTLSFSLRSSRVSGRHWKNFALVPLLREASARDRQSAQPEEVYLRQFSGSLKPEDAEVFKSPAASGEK
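Fluo-8 calcium influx in TRPV1-expressing cells, kinetic read (ex 480/em 520 nm). Compound added and read 3 min for agonist activity, followed by capsaicin at EC20 final and 2 min further read for enhancement.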
Six1-Eya2 blk: inhibitors of human Six1/Eya2 interaction; Q15475+O00167; AlphaScreen GST-Six1/His-Eya2 binding, biochemical; active compounds read low; control for the full effect not named in the record; activity change, % (test concentration not listed); 0.56% of 360,000 active; in the data active = activity change below about -65%; inconclusive = about -30% to -65%; inactive = above about -30%; note: % is set by controls: 0 for no effect and ±100 for the full control effect
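AlphaScreen luminescence read after one hour at 37 °C in darkness. Pin-transferred compounds met GST-Six1 and His-Eya2 protein (5X stock 250 nM/500 nM) plus glutathione donor and Ni-chelate acceptor beads (5X, 50 ug/mL).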
D2 potentiator: human D2 receptor positive allosteric modulation | P14416 | potentiation, % (no concentration beside the values) | DiscoveRx D2 beta-arrestin cells, luminescence, 90 min; 100% = 57 uM dopamine signal | 0.23% of 360,000 active; active = potentiation of 50% or more; inconclusive = 30% to 50%; inactive = 30% or less;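 note: compound concentration not given in the record; tested on top of an EC20 dose of dopamine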
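PathHunter D2 cells, attached overnight at 37 deg C, received compound in DMSO plus dopamine at EC20 (50 nM final) for 90 min at 37 deg C. Beta-arrestin recruitment was read as luminescence after 1 h with detection reagent at ambient temperature.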
CtBP-E1A inh: CtBP/E1A binding inhibition; AlphaScreen GST-E1A/His-CtBP binding, 1536-well; active compounds read low; control for the full effect not named in the record; activity change, % (no concentration beside the values); 0.49% of 340,000 active; in the data active means activity change below about -65%; inconclusive means about -30% to -65%; inactive means above about -30%; note: % is set by controls: 0 for no effect and ±100 for the full control effect
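Homogeneous bead-based format: GST-tagged E1A captured on glutathione donor beads, His-tagged CtBP on nickel acceptor beads; compounds precede bead addition by 2 h at 37 °C.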
PINK1 expr mod: changes PINK1 expression; 0.2% of 410,000 active; Potency, µM (highest dose often 76.6 µM), without a hit: top-dose activation (PINK1 increase), most hits filed as activators; PINK1 immunofluorescence, high-content cytometry, 24 h; active = well fitted activation curve with a large enough effect; inconclusive = small, poorly fitted or top-dose-only effect; inactive = flat fitted curve, though single readings scatter; cell line not stated here;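 note: potency is the fitted concentration of half-maximal effect; % of control where 0% means no effect; nearly all actives have a fitted effect of over 65% in size; a mitochondrial uncoupler was the plate control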
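Compound titrations (5 concentrations, 24 h) on a stable cell line; DMSO and CCCP controls. Endpoint: fixed-cell PINK1 immunofluorescence with mitochondrial, cell and nuclear markers, scanned by microplate cytometer.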
D2 ag: activates the human D2 dopamine receptor | DiscoveRx PathHunter D2 beta-arrestin, luminescence, 90 min; 100% = 57 uM dopamine signal | 0.084% of 360,000 active | P14416 | activation, % (concentration not given with the values); in the data active = activation above about 40%; inconclusive = about 15% to 40%; inactive = below about 15%; note: compound concentration not given in the record; the text of the record calls up to 30% inactive
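Agonist mode: compounds alone added to overnight-plated D2 PathHunter cells for 90 min at 37 C, with 57 uM final dopamine (EC100) defining full response. Beta-arrestin recruitment detected by chemiluminescent reagent, read after 1 h at ambient temperature.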
* hit, by the source's call; ? = inconclusive; / = no result given; [ ] = dose if it differs, or a comment.

Compound	Sfp inh	TRPV1 potentiator	Six1-Eya2 blk	D2 potentiator	CtBP-E1A inh	PINK1 expr mod	D2 ag
COc1ccc(/C=N/NC(=O)c2sccc2C)c2ccccc12	/	/	4	-12	/	7.0%	-0.1
CCOCCCNC(=O)N[C@@H](Cc1ccccc1)C(=O)OC	12%	3	7	11	-1	-0.8%	0.7
CCCOc1ccc(C(C)=O)cc1CN1CCOCC1	23%	-14	24	-13	33	2.5%	-3.9
CC(=O)SC1CC2=CC(=O)CCC2(C)C2CCC3(C)C(CCC34CCC(=O)O4)C12 (stereo not drawn)	11%	5	-4	0	5	-1.8%	1.7
C=CCN(CC=C)S(=O)(=O)c1ccc(NC(=O)COc2ccccc2OC)cc1	12%	-2	-2	-3	2	-0.5%	-2.4
CCOC(=O)C1(S(=O)(=O)c2ccccc2)CCN(Cc2ccccc2)CC1	9%	-12	-6	-3	4	12%[38.3 µM]	2.5
CCOC(=O)C1(Cc2ccccc2C)CCCN(S(=O)(=O)c2cccnc2)C1 (stereo not drawn)	-8%	2	5	-4	-2	-0.7%	-3.5
S=C(NCc1ccccc1)N1CCN(c2cccc(Cl)c2)CC1	19%	-9	-26	7	7	4.5%	1.1
O=C(Nn1cnnc1)c1ccc(F)cc1	5%	21	2	-7	4	-2.3%	-5.0
COc1ccccc1NC(=O)COc1cccc2c1CCNC2=O	/	-5	?	1	?	0.4%	2.5
CCn1nc(C(C)C(=O)O)c2ccccc2c1=O (stereo not drawn)	19%	6	5	-2	-1	0.3%	-1.7
CC(OC(=O)CCC(=O)c1cccs1)C(=O)Nc1ccc(Cl)cn1 (stereo not drawn)	10%	-10	-2	-15	1	0.5%	0.1
O=C(COC(=O)CNC(=O)c1ccc(Cl)cc1)Nc1ncc(C(F)(F)F)cc1Cl	-4%	-12	2	-12	7	-0.9%	-4.8
Cc1nonc1OCC(C)(COc1nonc1C)NC(=O)c1ccccc1	-5%	-2	3	-14	2	?	-2.2
COCCN(C(=O)COC(=O)CCc1ccccc1OC)c1c(N)n(Cc2ccccc2)c(=O)[nH]c1=O	/	-3	0	-24	9	-0.9%	-8.5
CC(C)C[C@@H](CN)NC(=O)c1nc[nH]c1C(=O)N[C@@H](C)C(=O)CNC[C@H](CC(C)C)NC(=O)c1nc[nH]c1C(=O)N[C@@H](Cc1ccccc1)C(=O)O	/	/	-4	-8	-8	-1.1%	-5.3
CC(NC(=O)C1CCN(C(=O)[C@@H]2Cc3ccccc3CN2)CC1)c1ccccc1 (stereo partly drawn)	3%	-7	2	-10	0	-1.1%	-0.4
Cn1c(CCC(=O)Nc2ccc(F)cc2)nc2cc(S(=O)(=O)N3CCOCC3)ccc21	/	3	-6	-2	1	0.1%	-0.9
Cc1ccc(Nc2ncccc2C(N)=O)cc1	-2%	7	2	-8	-2	0.2%	1.1
COc1ccc(-n2ncc(C(=O)NC3CC3)c2C2CCN(C(=O)OC(C)(C)C)CC2)cc1	17%	-7	1	-6	1	-1.7%	-0.4
CCOc1ncccc1C(=O)OCC(=O)Nc1ccc(C)c(S(=O)(=O)N2CCOCC2)c1	19%	14	9	-3	3	2.8%	0.7
O=C(N/N=C/c1ccc(Cl)cc1Cl)c1ccc2nc[nH]c2c1	-18%	-1	-8	-10	/	-0.8%	3.3
COc1ccc(NS(=O)(=O)c2cccc(C(=O)NNC(=O)c3ccc(C)o3)c2)cc1	/	-10	-1	-3	-1	0.5%	-1.6
O=C(COc1ccccc1N1C(=O)c2ccccc2C1=O)c1ccc(Cl)cc1	8%	-17	3	11	-3	-0.6%	2.8
Cc1nc2ccc(NC(=O)Cc3ccccc3F)cc2s1	-3%	-11	7	-1	-19	3.4%	3.3
COc1ccc(NC(=O)c2cccnc2N2CCCC2)cc1	7%	-7	-2	-5	1	?	1.7
CSCC[C@H](NC(=O)COc1cc2c(c3oc(=O)c(C)c(C)c13)CCC(C)(C)O2)C(=O)O	26%	20	-8	0	-9	3.2%	-0.6
COCCCNC(=S)NNC(=O)c1ccoc1C	-3%	5	10	-7	7	3.8%	0.3
CC(=O)N1c2ccc(S(=O)(=O)N3CCC(C(=O)N4CCN(c5cc(Cl)ccc5C)CC4)CC3)cc2CC1C (stereo not drawn)	-12%	-8	-8	-9	-8	-0.6%	-8.9
CC(=O)N1N=C2c3ccccc3CCC2C1c1cccs1 (stereo not drawn)	22%	-21	1	-7	8	-0.4%	-2.7

Entries of single compounds from above:
COc1ccc(NC(=O)c2cccnc2N2CCCC2)cc1 as listed: Sfp inh: 7%; TRPV1 potentiator: -7; Six1-Eya2 blk: -2; D2 potentiator: -5; CtBP-E1A inh: 1; PINK1 expr mod: ?; D2 ag: 1.7
O=C(N/N=C/c1ccc(Cl)cc1Cl)c1ccc2nc[nH]c2c1 as listed: Sfp inh: -18%; TRPV1 potentiator: -1; Six1-Eya2 blk: -8; D2 potentiator: -10; CtBP-E1A inh: /; PINK1 expr mod: -0.8%; D2 ag: 3.3
CC(NC(=O)C1CCN(C(=O)[C@@H]2Cc3ccccc3CN2)CC1)c1ccccc1 (stereo partly drawn) as listed: Sfp inh: 3%; TRPV1 potentiator: -7; Six1-Eya2 blk: 2; D2 potentiator: -10; CtBP-E1A inh: 0; PINK1 expr mod: -1.1%; D2 ag: -0.4

Other entries
Compound	Sfp inh	TRPV1 potentiator	Six1-Eya2 blk	D2 potentiator	CtBP-E1A inh	PINK1 expr mod	D2 ag
O=C1Nc2ccccc2C1=Nc1ccc2[nH]c3ccccc3c2c1	/	/	-17	-13	0	-3.5%	-7.9
CN(C)c1cc2c(c(N(C)C)c1)C(=O)c1ccccc1C2=O	?	-22	-81*	-5	-81*	-4.0%	-4.3
CC(C(=O)N1CCOCC1)N1c2cccc3cccc(c23)S1(=O)=O (stereo not drawn)	5%	13	-2	-8	14	-2.3%[38.3 µM]	-0.2
Brc1ccc(-c2cn3c(n2)CCc2ccc4cccnc4c2-3)cc1	?	8	-12	-12	-9	8.6%	2.9
CN(C(=O)c1cccs1)C1(C)CCS(=O)(=O)C1 (stereo not drawn)	10%	7	1	-29	-11	0.1%	-5.0
C/C(CC(=O)Nc1ccc(Cl)c(C(F)(F)F)c1)=N\NC(=O)c1ccccc1O	28%	-11	-23	-33	-19	4.6%	-5.2
CCN1CCN(CCCNC(=O)CNC(=O)c2nn(-c3ccc(OC)cc3)c(=O)c3ccccc23)CC1	27%	-3	14	3	0	-1.7%	-1.1
CCc1ccc(N(CC(=O)NC2CCCC2)C(=O)CCC(=O)Nc2cc(C)on2)cc1	7%	-8	16	1	1	2.1%	-4.5
COC(=O)C1(C)CN(S(=O)(=O)c2ccc(C)cc2)c2cc(OC)ccc2C1=O (stereo not drawn)	4%	-2	-11	-8	-7	1.9%	-2.8
O=C(C[n+]1cccc(C(=O)N/N=C/c2cccc([N+](=O)[O-])c2)c1)c1ccccc1	/	2	-9	-1	-6	-0.9%	-1.4
CCCCS(=O)(=O)Nc1ccc(C)cn1	40µM*	7	-2	11	5	-2.8%	-2.8
COC(=O)C(O)(CC(=O)Nc1ccc(OC(F)(F)F)cc1)C(F)(F)F (stereo not drawn)	9%	2	0	6	7	/	-6.0
Cc1cc(Nc2ccccc2)n(-c2ccc(C(=O)O)cc2)n1	-8%	10	-1	0	-3	1.7%	-1.0
COc1ccc(Cl)cc1NC(=O)CN(C)CC(=O)Nc1ccc(S(N)(=O)=O)cc1	-6%	2	1	4	6	0.0%	1.9
CCN(CC)CCNC(=O)c1ccc(NC(=O)CC(NC(=O)c2ccccc2Cl)c2ccccc2)cc1 (stereo not drawn)	5%	21	-1	-1	1	-1.2%	-0.1
CC(C)C[C@@H](NC(=O)C1CCC(CNC(=O)[C@H](Cc2ccccc2)NC(=O)OC(C)(C)C)CC1)C(=O)O (stereo partly drawn)	1%	21	0	-1	9	1.7%	-3.2
CCSc1nnc(NC(=O)CSc2ncccn2)s1	9%	3	10	-1	7	-0.6%	-0.5
CC1CCCC(NC(=O)CSc2nnnn2C)C1C (stereo not drawn)	-11%	-21	3	-4	5	-1.4%[38.3 µM]	-0.1
Cc1cc(C)c(S(=O)(=O)N2CCOC2CNC(=O)C(=O)NCCCN2CCCC2=O)c(C)c1 (stereo not drawn)	21%	-5	6	-11	6	0.1%	-3.0
CCCCCc1ccc(-c2ccc(C(=O)O)cc2)nc1	-11%	1	2	-15	-8	1.7%	2.6
Cc1cc(=O)[nH]c(SCC(=O)Nc2ccc(S(N)(=O)=O)cc2)n1	3%	-14	-6	-1	8	-0.5%	2.9
CCc1ccc(S(=O)(=O)NCc2cn3c(C)csc3n2)s1	-2%	13	-3	-8	-12	0.0%	-0.2
O=C(NCc1ccco1)C(c1ccco1)N(C(=O)Cn1nnc2ccccc21)c1ccc2c(c1)CCC2 (stereo not drawn)	/	/	-17	-16	2	3.0%	-1.7
CC(NC(=O)C1CCC1)c1ccccc1 (stereo not drawn)	15%	-6	5	5	-3	4.9%	-1.1
COCCN(C(=O)CN1CCc2ccccc2C1)c1c(N)n(Cc2ccccc2)c(=O)[nH]c1=O	12%	-1	1	-14	2	-0.3%	-3.7
CCCCn1c(N)c(N(CCOC)C(=O)c2cccc(OCc3ccccc3)c2)c(=O)[nH]c1=O	/	?	-6	2	10	0.8%	-1.6
Cc1ccc(C(=O)NNC(=O)/C=C\C(=O)O)cc1	?	0	8	-16	1	-0.4%	-1.3

Compound activity from PubChem BioAssay.
